VDR inh = Inhibitors of the vitamin D receptor (VDR): qHTS. Potency, µM, for the others: max response, negative = inhibition, hits mostly inhibitors. VDR-SRC2-3 peptide fluorescence polarization, 2 h. 0.93% of 400,000 active; active = well fitted inhibition curve with a large enough effect; inconclusive = small, poorly fitted or top-dose-only effect, or another doubt; inactive = no such curve, though single readings can be large or run the other way; note: series mostly up to about 120 µM
Target sequence (P11473 whole entry, looked up): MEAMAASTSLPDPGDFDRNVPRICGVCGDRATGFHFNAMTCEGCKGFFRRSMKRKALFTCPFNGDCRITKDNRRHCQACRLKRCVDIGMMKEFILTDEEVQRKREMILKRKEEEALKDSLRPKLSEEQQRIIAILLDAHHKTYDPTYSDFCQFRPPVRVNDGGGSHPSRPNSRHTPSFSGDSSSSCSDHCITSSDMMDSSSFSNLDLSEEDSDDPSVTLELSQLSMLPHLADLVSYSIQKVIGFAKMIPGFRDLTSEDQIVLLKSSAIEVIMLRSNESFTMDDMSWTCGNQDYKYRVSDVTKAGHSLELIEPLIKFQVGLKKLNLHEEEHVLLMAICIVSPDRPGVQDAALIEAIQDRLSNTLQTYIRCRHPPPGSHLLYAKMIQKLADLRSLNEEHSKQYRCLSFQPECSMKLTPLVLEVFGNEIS
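Inhibition of the VDR/SRC2-3 peptide interaction is quantified by fluorescence polarization. Compounds (23 nl, pintool) incubate with the reagents for 2 hours at ambient room temperature.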
* marks the source's active call; other numbers are inactive results; ? = inconclusive; [ ] = another dose, or the depositor's remark. % is set by controls: 0 for no effect and ±100 for the full control effect; potency is the fitted concentration of half-maximal effect. This is a subset. The share of hits here may be higher or lower than overall.

VDR inh	SMILES
14%	O=C(Cn1nnc(-c2ccccc2)n1)NNC(=O)c1ccccc1
8%	O=C(Cn1cc2c(n1)CCCC2)NCC1CCCO1 (stereo not drawn)
-15%	COc1ccc(NC(=S)Nc2cc(C(F)(F)F)ccc2F)cc1
16%	COc1cc(-c2nnc(SCC(=O)N(C)C3CCCCC3)o2)cc(OC)c1OC
-1%	CCOc1ccc(C(=O)NCCc2csc(-c3cccnc3)n2)cc1
5%	O=C1NC2(NN1c1ccccc1)C1CC3CC(C1)CC2C3 (stereo not drawn)
6%	CCC1(C)Cc2c(sc3nnn(CC(=O)Nc4cccc5ccccc45)c(=O)c23)CO1 (stereo not drawn)
-6%	O=C(c1cnc(N2CCCCC2)c2ccccc12)N1CCN(c2ccc(Cl)cc2)CC1
-6%	O=C(CCS(=O)(=O)c1cccc2nsnc12)NCc1ccccc1
?	CCN1CCOC(=O)C1CC(=O)Nc1cc(Cl)ccc1C (stereo not drawn)
3%	CCCCc1ccc2nc(NC(=O)OC)[nH]c2c1
0%	Cc1ccccc1C1CC(c2ccccc2OC(F)F)Nc2ncnn21 (stereo not drawn)
?	Cc1ccccc1-c1nc(N(C)Cc2ccco2)c2ccccc2n1
3%	CN(CC(=O)Nc1ncn[nH]1)S(=O)(=O)c1ccc(Cl)cc1
-4%	CCOc1ccc(S(=O)(=O)N2CCN(C(=O)c3cc(S(=O)(=O)N4CCOCC4)ccc3C)CC2)cc1
8%	CCOc1ccc(C(=O)c2oc3ccccc3c2NC(=O)c2cc(-c3ccc(C)cc3)on2)cc1
2%	CC1=C(C(=O)NC(C)CCc2ccccc2)C2(CCC(C)CC2)OC1=O (stereo not drawn)
0%	Cc1ccn2c(=O)cc(COc3cccc(NC(=O)Nc4cccc(Cl)c4C)c3)nc2c1
4%	Cc1c(NC(=O)c2ccc(Br)o2)c(=O)n(-c2ccccc2)n1C
-20%	O=C(NCc1cn(-c2ccccc2)nc1-c1ccc(F)cc1)c1cccc([N+](=O)[O-])c1
-5%	C/C(CC(C)C)=N\NC(=O)Nc1ccccc1
37%[activator]	C#CCOCCOCCOCCNc1nc(N2CCN(C(=O)CCCCCCCCCCNC(=O)Cn3cc(CCCCCN)nn3)CC2)nc(N2CCN(C(=O)CCCCCCCCCCNC(=O)[C@H]([C@@H](C)CC)n3cc(CCCCN=C(N)N)nn3)CC2)n1
10%	O=C(NNC1=NCCC1)c1ccc(Br)cc1
12%	CCOCc1cc(CN2CCCC(CNC(=O)c3ccco3)C2)ccc1OC (stereo not drawn)
-6%	COc1cc(-c2nc(-c3ccc4c(c3)-c3ccccc3S4(=O)=O)c(-c3ccccc3)[nH]2)cc(OC)c1O
-11%	CCN(CC)S(=O)(=O)c1cccc(C(=O)N[C@H](C(=O)Nc2nc3ccccc3s2)C(C)C)c1
-12%	C=CCOc1cccc(C2C(C(=O)c3ccco3)=C(O)C(=O)N2CCN(CC)CC)c1 (stereo not drawn)
-11%	COc1ccc2[nH]cc(CCNc3cc(-c4ccc(C(=O)N(C)C)cc4)ncn3)c2c1
6%	O=C(CSCc1ccccc1)Nc1ccc(S(=O)(=O)N2CCOCC2)cc1
-2%	COc1ccc(C(C(=O)NC2CCCCC2)N(C(=O)CCl)c2ccc(C)cc2)cc1 (stereo not drawn)
16%	CCc1ccc(NC(=O)Cn2cc([N+](=O)[O-])nc2C)cc1
-7%	COc1ccc(C(=O)NNC(=S)NC(=O)c2ccc(Br)o2)cc1OC
-13%	O=C(Nc1cccc([N+](=O)[O-])c1)C(=O)N1CCCCC1
-9%	CCN(CCNC(=O)CN(C)S(=O)(=O)c1cccc2nsnc12)c1ccccc1
23%	COc1ccc(-c2ccc(F)cc2)cc1C1C2C=CCC(C)C2C(=O)N1Cc1ccccc1 (stereo not drawn)
10%	CCOc1ccc(NC(=S)NC(=O)c2cnn(CC)c2)c([N+](=O)[O-])c1
-3%	COC(=O)c1c(-c2ccccc2OC)sc2cc3c(cc12)OCO3
8%	O=C(CSc1nnc(-c2ccncc2)n1-c1ccc(Cl)cc1)N1CCOCC1
-29%	C#CCOCCOCCOCCNc1nc(N2CCN(C(=O)[C@H]([C@@H](C)CC)n3cc(CCC(=O)O)nn3)CC2)nc(N2CCN(C(=O)[C@H](C)n3cc(CCCN=C(N)N)nn3)CC2)n1
-2%	CCS(=O)(=O)N1N=C(c2ccccc2)CC1c1ccc2nccnc2c1 (stereo not drawn)
15%	O=[N+]([O-])c1ccccc1S(=O)(=O)N(CC1CO1)c1ccccc1 (stereo not drawn)
-17%	COc1ccc(CNC(=O)CCc2nc3cc(S(=O)(=O)N(C)C)ccc3n2C)cc1OC
-12%	O=C(NCc1ccco1)c1cccc(Br)c1
2%	CN1CCN(C(CNC(=O)C(=O)Nc2ccccc2C#N)c2ccc3c(c2)OCO3)CC1 (stereo not drawn)
6%	COc1ccc(NC(=O)NNC(=O)c2ccc3ccccc3c2O)cc1OC
8%	O=c1[nH]c2cnn(-c3ccccc3)c2c(=O)n1O
17%	O=S(=O)(Nc1ccccc1O)c1ccc(Cl)nc1
-11%	COc1cc(/C=N/NC(=O)CCN2CCCCC2)ccc1O
3%	CCCCOc1ccc(CNC(=O)c2ccc(NC(=O)N3CCSc4ncccc43)cc2)cc1
-5%	CCCCCCCCCn1c2c(c(=N)c3c1CCC3)CCCC2
-10%	COc1ccc(Cl)cc1S(=O)(=O)N1CCCC(C(=O)NCc2ccccc2)C1 (stereo not drawn)
?	CN(C)c1ccc(N2CN=C3SCC(=O)N3C2)cc1
6%	CCc1nnc(NC(=O)CSc2nnc(CNc3ccc(F)cc3)n2C2CCCCC2)s1
-15%	Fc1cccc(Cl)c1CSc1ccc(-c2cccnc2)nn1
-25%	O=C(NCc1ccco1)/C(=C\c1ccco1)NC(=O)c1ccc(Br)o1
-11%	CCC(=O)Nc1ccc(NC(=S)NC(=O)/C=C/c2ccccc2)cc1
9%	Cc1cccc(OCc2nnc(NC(=O)c3cccs3)s2)c1
11%	Cc1cc(NC(=O)c2nn3cccnc3c2Cl)no1
12%	Cc1ccc(OC(=O)CN2C(=O)c3ccccc3C2=O)cc1C
13%	C=C(C)CC1N(c2cccc(OC)c2)C(=O)[C@@H]2C(C(=O)O)[C@H]3C=C[C@@]12O3 (stereo partly drawn)

Following part:
VDR inh	SMILES
-17%	COc1ccc(S(=O)(=O)N2CCN(CC(=O)NCCc3cccs3)CC2)cc1
-20%	COc1ccc(NC(=S)N(CCCN2CCCC2)Cc2cccn2Cc2ccc(Cl)cc2)cc1Cl
13%	Cc1nc2ccccc2c2oc(C(=O)NCc3ccccn3)cc12
4%	N#CCCN(Cc1cccs1)C(=O)Nc1ccc(F)cc1
13%	Cc1ccc(NC(=O)CCNS(=O)(=O)c2cccc3nsnc23)cc1F
6%	O=C(/C=C/c1ccc2c(c1)OCO2)NCc1cn2cc(Cl)ccc2n1
0%	COC(=O)N1CCN(c2ccc(Cl)c(Cl)c2)CC1
-19%	CCOc1ccc(Cl)cc1/C=N/NC(N)=O
-22%	Cc1c(Cl)cccc1Nc1n[nH]c(=S)s1
1%	CC(C)N1CCC(NC(=O)Nc2ccc3c(c2)OCO3)CC1
-6%	CC(=O)c1cccc(NC(=O)c2ccc3c(=O)n4c(nc3c2)CCCCC4)c1
7%	COCCNC(=O)c1onc(CSc2cccc(Cl)c2)c1C(=O)O
7%	CC1(C)CC(=O)c2cc(-c3nc(-c4ccc(F)cc4)cs3)c(=O)[nH]c2C1
5%	CCOc1cc(CNC(=O)c2sc3ncnc(N(C)C4CCCCC4)c3c2C)ccc1OC
6%	CCOc1ccccc1CNC(=O)CCCN1C(=O)CCn2nc(-c3cccn3C)cc21

Another view of two compounds above:
canonical_smiles	VDR inh
O=C(/C=C/c1ccc2c(c1)OCO2)NCc1cn2cc(Cl)ccc2n1	6%
COC(=O)N1CCN(c2ccc(Cl)c(Cl)c2)CC1	0%

More compounds follow:
VDR inh	SMILES
-2%	CCCCOc1ccc(C(=O)Nc2cccc(-n3cnnn3)c2)cc1OC
24%	O=C(CSc1nc(-c2ccc(F)cc2)[nH]c1-c1ccc(F)cc1)Nc1ccc2c(c1)OCO2
-8%	CCOC(=O)c1ccc(NC(=O)Nc2cccc(C)n2)cc1
-27%	COc1ccc(C(=O)c2ccccc2CN2C(=O)c3ccccc3C2=O)cc1
-5%	Cc1cc(NC(=O)CSc2nc(-c3ccco3)cc(C(F)(F)F)n2)no1
7%	COC(=O)c1[nH]c2cc(C)ccc2c1NC(=O)CN1CCN(C(=O)c2ccco2)CC1
-1%	Oc1ccc(Br)cc1-c1ccn[nH]1
20%	CCn1c(C)nc2cc(C(=O)NN=Cc3ccc([N+](=O)[O-])cc3)ccc21
-13%	COC(=O)CC/C(=N/Nc1ccc(Cl)c(Cl)c1)C(=O)OC
?	CCOC(=O)C(=O)C1=C(N2CCOCC2)/C(=C\c2ccc(F)cc2)CC1
6%	COC(=O)c1cc(C#N)c(=O)[nH]c1C
10%	CCOC(=O)c1nc(NNC(C)=O)sc1C
10%	COc1ccc(N=Nc2c(C)n[nH]c2C)cc1
4%	Cc1nc(-c2c(C(F)(F)F)noc2-c2ccc(O)cc2O)cs1
-4%	O=C(NNC(=O)c1ccccc1OCc1ccccc1Cl)c1csc(N2CCOCC2)n1

Taken from the entries so far, 15 compounds:
VDR inh	SMILES
5%	CCOc1cc(CNC(=O)c2sc3ncnc(N(C)C4CCCCC4)c3c2C)ccc1OC
6%	CCOc1ccccc1CNC(=O)CCCN1C(=O)CCn2nc(-c3cccn3C)cc21
-2%	CCCCOc1ccc(C(=O)Nc2cccc(-n3cnnn3)c2)cc1OC
24%	O=C(CSc1nc(-c2ccc(F)cc2)[nH]c1-c1ccc(F)cc1)Nc1ccc2c(c1)OCO2
-8%	CCOC(=O)c1ccc(NC(=O)Nc2cccc(C)n2)cc1
-27%	COc1ccc(C(=O)c2ccccc2CN2C(=O)c3ccccc3C2=O)cc1
-5%	Cc1cc(NC(=O)CSc2nc(-c3ccco3)cc(C(F)(F)F)n2)no1
7%	COC(=O)c1[nH]c2cc(C)ccc2c1NC(=O)CN1CCN(C(=O)c2ccco2)CC1
-1%	Oc1ccc(Br)cc1-c1ccn[nH]1
20%	CCn1c(C)nc2cc(C(=O)NN=Cc3ccc([N+](=O)[O-])cc3)ccc21
-13%	COC(=O)CC/C(=N/Nc1ccc(Cl)c(Cl)c1)C(=O)OC
?	CCOC(=O)C(=O)C1=C(N2CCOCC2)/C(=C\c2ccc(F)cc2)CC1
6%	COC(=O)c1cc(C#N)c(=O)[nH]c1C
10%	CCOC(=O)c1nc(NNC(C)=O)sc1C
10%	COc1ccc(N=Nc2c(C)n[nH]c2C)cc1

(listing goes on)
VDR inh	SMILES
-8%	CCOC(=O)c1c(C=O)c(C)n(Cc2ccc(Cl)cc2)c1C
18%	Cc1ccc(OCCN2CCCCCC2)c(C)c1
19%	NC(=O)C1CCN(CC(=O)N2c3ccccc3CCc3ccccc32)CC1
-9%	CCOc1ccc(C(=O)Nc2cccc3ncccc23)cc1Cl
6%	Cc1ccc(S(=O)(=O)NCC23C=CC(O2)C2C(=O)N(c4ccccc4)C(=O)C23)cc1 (stereo not drawn)
-1%	CCC(=O)Nc1ccc(N2CCCCC2)cc1
-7%	CC(=O)N[C@@H](Cc1c[nH]c2ccccc12)C(=O)OCc1ccc(C#N)cc1
2%	Cc1ccc(S(=O)(=O)c2nnn3c2nc(NCc2cccs2)c2sccc23)cc1
7%	CCC(=O)N1CCN(c2ccccc2NC(=O)c2cccs2)CC1
12%	COc1cccc2c(SCC(=O)N/N=C/c3ccccc3)cc(C)nc12
-20%	O=C(COC(=O)CNC(=O)c1ccc([N+](=O)[O-])o1)Nc1ncc(C(F)(F)F)cc1Cl
8%	COc1c(Cl)cc(C(=O)Nc2cc(-c3nc4ccccc4[nH]3)ccc2C)cc1Cl
4%	CCc1c(C)nc(Nc2nc(C)c3cc(OC)ccc3n2)[nH]c1=O
40µM*	Cn1c(=O)[nH]c(=O)c2c1[nH]c(=S)n2CCCc1ccccc1
-8%	Cc1cc(C)cc(NS(=O)(=O)c2ccc3c(c2)c(=O)n(C)c(=O)n3C)c1
10%	COCCN1C(=NCCCOC(C)C)N[C@@H](c2ccccc2)C(C(=O)OC)=C1C
-6%	O=C(Nc1nc(-c2ccccn2)cs1)c1ccc2c(c1)OCCO2
8%	CCCCn1c(N)c(N(C(=O)CSc2nncn2-c2ccccc2)C2CCCC2)c(=O)[nH]c1=O
1%	CCCCCCOc1ccc(C(=O)n2cnc(N)n2)cc1
-17%	Cc1ccccc1N/C(=C(/C(Cl)=C(Cl)Cl)[N+](=O)[O-])n1nnc2ccccc21
-15%	O=C(CCNC(=O)Cn1cnc2ccccc2c1=O)NCC1CCCO1 (stereo not drawn)
-13%	O=C(COc1ccccc1)NC(=S)N1CCc2ccccc21
15%	O=C(CSc1nc2c([nH]c3ccccc32)c(=O)n1-c1cccc(Cl)c1)N1CCCC1
1%	CCOc1ccccc1OCC(=O)N/N=C(\C)Cc1ccc(OC)cc1
-3%	Cc1c2cnn(CC(=O)NCCCN3CC(C)CC(C)C3)c(=O)c2c(C)n1Cc1ccc(Cl)cc1 (stereo not drawn)
-9%	CCc1nccn1-c1cc(C(C)(C)C)nc2c(-c3ccc(Cl)cc3)cnn12
-12%	COc1ccc(Nc2nnc(C)c(=O)[nH]2)cc1
-7%	O=C(NC1CC1)c1ccc(Cl)c(S(=O)(=O)N2CCOCC2)c1
0%	O=C(NCc1ccco1)c1ccccc1SCC(=O)N1CCCC1
-7%	CC(C)CCNC(=O)CN(CC1CCCO1)C(=O)CCC(=O)Nc1ccccn1 (stereo not drawn)
2%	CC(=O)c1c(C)n(-c2ccc(N(C)C)cc2)c2ccc(OCC(N)=O)cc12
9%	COc1ccc(OCC(=O)N2CC3(C)CC2CC(C)(C)C3)cc1 (stereo not drawn)
-8%	c1ccc2c(c1)nc1n2CN(Cc2ccc3c(c2)OCO3)CN1
7%	Cc1cc(C(=O)N2CC(C)CC(C)C2)c(C)o1 (stereo not drawn)
12%	CN(C)C(=O)N1CCCC(C(=O)NCc2ccccc2Cl)C1 (stereo not drawn)
5%	CC(=O)NCCc1nc2ccccc2n1Cc1ccccc1
-12%	O=C(COc1cc(O)c2c(=O)cc(-c3ccccc3)oc2c1)c1cccc([N+](=O)[O-])c1
